# NPYLR7 agonist: agonists of mosquito NPYLR7 receptor, primary screen, cell-based, Aedes aegypti, calcium fluorescence, mosquito biting behavior. activation, % at 10 µM. 0.15% of 270,000 active. HEK293T NPYLR7/Galpha15, GCaMP6s calcium fluorescence. AID 1259423, 2018. Aedes aegypti neuropeptide Y-like receptor 7 (NPYLR7); in the data active means activation above about 40%;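 further: 0% = vehicle and 100% = reference agonist at the receptor; some compounds past the cut are filed as inactive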
# NPYLR7 agonist max-min: second read-out of NPYLR7 agonist, no call of its own (marks repeat the call); activation, %; measured here: Max-Min RFU normalised activation; some inactives read as strong as hits;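 span of the calcium signal over five minutes; 0% = vehicle and 100% = native peptide agonist; compound fluorescence can raise it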
# * marks the source's active call; other numbers are inactive results; & = joins results of further samples. Some of the compounds tested; rates above refer to the full screens.
SMILES | NPYLR7 agonist | NPYLR7 agonist max-min
CC(C)(C)c1ncc2c(n1)CN(C(=O)c1cccc3c1OCC3)C2 | 2 | 1
CCn1nnc2c(N3CCN(C(=O)COC)CC3)ncnc21 | 1 | 6
CCOC(=O)C1CCCN(C(=O)c2c(C(C)C)nn(-c3ccccc3C)c2C(C)C)C1 (stereo not drawn) | 16 | 11
COc1ccc(N2Cc3ccccc3C2)c(OC)c1 | 3 | 0
O=C(Nc1c(-c2cc(F)ccc2F)nc2ccccn12)C1CCCC1 | 5 | 7
CCN(C1CCOC(C)(C)C1)S(=O)(=O)NCc1ccccc1 (stereo not drawn) | 5 | 3
CCC(C)NC(=O)C1=C(C)C(=O)OC12CCC(C)CC2 (stereo not drawn) | 4 | 3
N=C1C(c2nc3ccccc3[nH]2)C(=O)CN1NC(=O)c1n[nH]c(=O)c2ccccc12 (stereo not drawn) | 5 | 4
COCCN(CCC(=O)NC1CCN(Cc2ccccc2)CC1)c1nc(Cc2ccc(F)cc2)ns1 | -12 | -18
COc1ccc(-n2c(-c3cccc(C)c3)n[nH]c2=S)cc1 | -8 | -6
COc1cc(C(=O)Oc2ccccc2/C=N/NC(=O)CNc2ccc(C)cc2)cc(OC)c1OC | -4 | -7
CCOc1cc(-c2cc(C(=O)O)c3[nH]c(C)nc3n2)ccc1O | -1 | -1
CCn1c2ccccc2c2cc(CN(Cc3ccco3)C(=O)c3cccc(C)c3)ccc21 | 2 | -1
Cn1c(=O)c2c(nc3n2CC(c2ccc(F)cc2)=NN3CCN2CCOCC2)n(C)c1=O | 11 | 16
Cc1nc2nc3ccn(Cc4ccncc4)c(=O)c3c(-c3cccc(Cl)c3)n2n1 | 0 | -3
CCC(=O)N(CC(=O)N(CCc1ccccc1)Cc1ccc(C)o1)CC1CCCO1 (stereo not drawn) | 5 | 15
CCOC(=O)[C@@H]1CN(C(=O)c2ccc(-c3cccs3)s2)[C@H]2c3cccc(C)c3O[C@@H]12 | 1 | 12
COC(=O)c1c2c(n3ccc(C)cc13)C(=O)c1ccccc1C2=O | -6 | -11
O=C1CCNc2ccccc2CN1Cc1ccco1 | 5 | 15
O=C(NC1CC1)c1nn(-c2ccc(Cl)cc2)c(=O)n(Cc2cccc(Cl)c2)c1=O | 3 | 10
COc1cccc(C(=O)N2CCC2c2ccc(F)cc2)c1OC (stereo not drawn) | -3 | -5
CCOCCCNCC(=O)N(Cc1ccc2c(c1)OCO2)Cc1ccc(C)o1 | -7 | -12
CCCCn1c2c(c(=O)n(C)c1=O)C(c1ccc(OC)cc1)N1CCCCCC1=N2 (stereo not drawn) | 0 | -2
O=C(CSCc1csc(C2CCCC2)n1)NC1CCCC1 | 2 | 1
CCCc1ccccc1NCc1cc(=O)n2c(C)csc2n1 | 4 | 3
CN1CCN(c2cc(OCCNS(=O)(=O)c3cccc(Cl)c3Cl)ncn2)CC1 | 0 | -1
CC(CNC(C)(C)CO)c1ccccc1 (stereo not drawn) | -2 | 28
COc1cc(C2c3cccn3CCN2C(=O)NCc2ccccc2)cc(OC)c1OC (stereo not drawn) | 10 | 4
CCCCCCc1ccc(C(=O)NC(C)C(=O)Nc2nnc(-c3ccc(C)cc3)s2)cc1 (stereo not drawn) | 18 | 21
Cc1nnc(-c2ccccc2-c2cccc3ccnn23)s1 | 3 | 2
O=C(CN1C(=O)S/C(=C\c2ccccc2)C1=O)NNC(=O)c1cccnc1 | 7 | 10
O=C1CCC(CCC(=O)N2CCC3(C=Cc4ccccc43)CC2)(Cc2ccc(Cl)cc2)N1 (stereo not drawn) | 6 | 3
CC(=C(CCOP(=O)(O)O)SC(=O)c1ccccc1)N(C=O)Cc1cnc(C)nc1N | -5 | -10
Cc1nc(C(C)(C)C)sc1C(=O)NC(C)(C)c1noc(C(C)(C)C)n1 | -4 | -5
CCCNC(=O)CN1CCN(Cc2nc(-c3ccc(CC)cc3)no2)CC1 | 0 | 0
COc1cccc(CSc2nnc(NC(=O)COCc3ccccc3)s2)c1 | 2 | 6
c1ccc2c(c1)OC1(CCCC1)N1N=C(c3ccc4c(c3)OCCO4)CC21 (stereo not drawn) | 5 | 5
N#Cc1c(NC(=O)COC(=O)COC2CCCC2)sc2c1CCCC2 | -1 | 0
CC1(C)CC(=O)c2cc3c(nc2C1)CC(C)(C)CC3=O | 15 | 8
CC(=O)NC1CCCN(Cc2nc(C)c(-c3ccc(Cl)cc3)o2)C1 (stereo not drawn) | 7 | 3
CC1(C(=O)Nc2ccc3c(c2)OCCO3)CCN1C(=O)c1ccco1 (stereo not drawn) | 3 | 1
CCN(CC1CCCN(CCc2cccc(OC)c2)C1)C(=O)c1ccc(C)nc1 (stereo not drawn) | 0&-1 | -3&-1
COCCN(CC(=O)N(Cc1ccccc1)Cc1ccco1)C(=O)Nc1ccc(Cl)c(Cl)c1 | -4 | 1
CCOC(=O)c1cc(-c2ccc(N3CCN(C(=O)c4ccc(OC)c(F)c4)CC3)cc2)n(-c2ccc(F)cc2)n1 | 27 | 18
CCOC(=O)COC1CCN(C(=O)c2cccc(OC)c2)CC(=O)N(C)c2ccccc21 (stereo not drawn) | 6 | 18
Cc1nn(-c2ccc(N3CCOCC3)nn2)c2c1C(c1ccc(O)cc1)CC(=O)N2 (stereo not drawn) | -13 | -20
CCOC(=O)C1(CC2CCCCO2)CCN(Cc2cnc(C)s2)CC1 (stereo not drawn) | -6 | -5
CNS(=O)(=O)c1ccc(/C=C/C(=O)N2CC(C)OC(C)C2)cc1 (stereo not drawn) | -2 | -4
COc1cccc(Cn2ccnc2CN(CCN(C)C)C(=O)CC(C)C)c1 | 6 | 13
COc1ccc(CCNC(=O)c2c(C)c(N3CCOCC3)c(C)n2Cc2ccccc2C)cc1OC | -2 | 3
COc1ccc(OC)c(C(C2Sc3nc(C)nn3C2=O)N(C)Cc2ccccc2)c1 (stereo not drawn) | 0 | -2
CC1(C(=O)NC2CCc3ccccc32)CCN1Cc1ccc(-c2ccccn2)cc1 (stereo not drawn) | 3 | -3
COc1cccc(CN2CCN(c3nnc(C(F)(F)F)s3)CC2)c1O | 1 | 1
O=C(N[C@@H]1C[C@H]2CC[C@@H]1C2)c1cccnc1Nc1cccc(C(F)(F)F)c1 | 2 | -1
Cn1cc(CN2CC(OCc3cccnc3)CN(Cc3ccc4c(c3)CCO4)CC2=O)cn1 (stereo not drawn) | 19 | 6
C=CCCC(=O)NC1CC(=O)N(CCc2ccc(F)cc2)C1 (stereo not drawn) | 11 | 5
COc1ccc(S(=O)(=O)N2CCc3ccccc3C2)cc1N1CCN(C(=O)COc2ccccc2)CC1 | 22 | 11
COc1ccc(N=Nc2c(-c3ccccc3)[nH]n(-c3nc(-c4ccccc4)cs3)c2=O)c([N+](=O)[O-])c1 | -14 | -4
COc1ccc(C2CC(c3cccc(C)c3)=NN2C(=O)CN2CCC(Cc3ccccc3)CC2)c(OC)c1 (stereo not drawn) | 1 | 7
COC(=O)c1sc2ccccc2c1S(=O)(=O)Nc1cc(F)ccc1C | 3 | 5

# More records follow.
SMILES | NPYLR7 agonist | NPYLR7 agonist max-min
COCCOCC(=O)Nc1ccc(-c2cccc(-c3ccc(OC)cc3)n2)cc1 | -3 | -2
O=c1c2ccccc2nc2c3ccccc3c(NN=Cc3c[nH]c4ccccc34)nn12 | 2 | 9
O=C(CNC(=O)C12CC3CC(CC(C3)C1)C2)NNC(=O)c1cccs1 | -13 | -16
Cn1ccc(P(=Nc2ccc([N+](=O)[O-])cc2)(N2CCOCC2)N2CCOCC2)c1 | -1 | -1
CCc1[nH]c2c(CNC(=O)c3cc(-c4ccccc4O)n[nH]3)cc(F)cc2c1C | 2 | -3
O=C(O)C1(O)CCN(c2cc(C(F)(F)F)ccn2)CC1 | 0 | 0
Cc1ccc(S(=O)(=O)Nc2nc(-c3ccc(F)c(F)c3)cs2)cc1 | -3 | 0
CN=C(NC)NCC1CCN(c2cccc(Br)c2)C1 (stereo not drawn) | 1 | -2
CCNC(=O)CN(CC)C(=O)c1ccsc1 | 14 | 12
CC(C)CN1CCC(C(=O)NC(c2ccc(F)cc2)c2ccc3ccccc3n2)CC1 (stereo not drawn) | 4 | 0
O=C(c1ccco1)N1CCCC(OCC2CC2)C1 (stereo not drawn) | -3 | -4
CSc1cccc(NC(=O)c2cc([N+](=O)[O-])cc([N+](=O)[O-])c2)c1 | -2 | -1
Fc1ccc(CN(CCc2ccccn2)C/C(Cl)=C/Cl)cc1 | 0 | 0
CCCCC(O)CN(Cc1c(C)nn(-c2ccccc2)c1Oc1cccc(OC)c1)C1CC1 (stereo not drawn) | 2 | 3
O=C(c1cccc(-c2ncc[nH]2)c1)N1CCCC(CCc2c(F)cccc2F)C1 (stereo not drawn) | 8 | 2

# Molecules listed so far that have a tert-butyl group, in the order listed:
SMILES | NPYLR7 agonist | NPYLR7 agonist max-min
CC(C)(C)c1ncc2c(n1)CN(C(=O)c1cccc3c1OCC3)C2 | 2 | 1
Cc1nc(C(C)(C)C)sc1C(=O)NC(C)(C)c1noc(C(C)(C)C)n1 | -4 | -5

# Following part
SMILES | NPYLR7 agonist | NPYLR7 agonist max-min
O=[N+]([O-])c1cc(S(=O)(=O)C(F)(F)F)ccc1Oc1ccc(F)cc1 | 9 | 10
CN(C)S(=O)(=O)c1cc(C(=O)Nc2nccs2)ccc1Cl | -2 | 0
CC(C)(C)NC(=O)c1ccccc1NC(=O)CN1C(=O)c2ccccc2C1=O | 7 | -1
Cc1nnc(SCC(=O)NC(=O)Nc2ccccc2)n1C1CCCCC1 | -4 | -1
O=C(C1C[C@H]1c1ccccc1)N1CCN(c2nccc(-c3ccco3)n2)CC1 (stereo partly drawn) | 24 | 38
CC(=O)NCCCNS(=O)(=O)c1ccc(C)c(F)c1 | -4 | -4
Cc1ccc(NC(=O)CCC2CCCO2)cc1Cl (stereo not drawn) | 7 | 2
O=C(O)C1CCC[C@@H]2[C@@H]3CC(CN12)[C@@H]1CCCCN1C3 (stereo partly drawn) | 1 | -2
COC(=O)c1cccc(NC(=O)Cn2nc3c(Sc4ccc(C)cc4C)nccn3c2=O)c1 | -5 | -5
COc1ccc([C@H]2[C@@H](C(=O)N3CCCC3c3ccncc3)c3ccccc3C(=O)N2Cc2ccccc2)cc1 (stereo partly drawn) | -9 | -12
COc1cc(OC)cc(C(=O)Nc2cccc(C3SCC(=O)N3c3ccc(C)cc3C)c2)c1 (stereo not drawn) | -2 | 5
CCCCN1C(=O)/C(=C/N(C(C)=O)c2ccccc2)SC1=S | 11 | 15
COCCOC(=O)C1=C(C)NC2=C(C(=O)CCC2)C1c1ccc(OC)c(O)c1 (stereo not drawn) | 1 | -2
CCOC(=O)c1[nH]c(C)c(C(=O)C(C)N(CCOC)C(=O)c2ccc(Br)cc2)c1C (stereo not drawn) | -6 | -5
CCC(C)c1c(O)nc(SCC(C)C)[nH]c1=O (stereo not drawn) | 15 | 7

# Rewritten with values under each structure: entries from further up
# Order of values: NPYLR7 agonist	NPYLR7 agonist max-min
COc1cc(OC)cc(C(=O)Nc2cccc(C3SCC(=O)N3c3ccc(C)cc3C)c2)c1 (stereo not drawn)
 : -2	5
CCC(C)c1c(O)nc(SCC(C)C)[nH]c1=O (stereo not drawn)
 : 15	7

# Remaining list, next part.
SMILES | NPYLR7 agonist | NPYLR7 agonist max-min
CCCN(CC(=O)N(CCc1c[nH]c2ccccc12)Cc1ccc(OC)cc1)C(=O)Nc1cc(C(F)(F)F)cc(C(F)(F)F)c1 | -7 | 2
Clc1ccc2c(SCCN3CCSCC3)ccnc2c1 | -1 | 2
C=C(OP(=O)(O)O)C(=O)O | 1 | 2
COc1ccccc1-n1c(CNC(=O)Cc2ccccc2)nnc1SCC(=O)Nc1cc(C(F)(F)F)ccc1Cl | -6 | 0
O=C(C1CCCCC1)N(Cc1ccccn1)c1nc2c(F)cccc2s1 | 2 | -2
O=C1NC(C(=O)NCc2cccnc2N2CCCCCCC2)CO1 (stereo not drawn) | 0 | -1
O=C(c1cc(COc2ccccc2F)[nH]n1)N1CC(n2cccn2)C1 | 28 | 11
Clc1ccc(Nc2nc3ccccc3n3nnnc23)cc1Cl | 17 | 12
CCCc1cnc(N2CCC(C3CCN(Cc4cccnc4)CC3)C2)nc1 (stereo not drawn) | 7 | 4
CCc1nn2c(ncc3c(=O)n(-c4ccc5c(c4)OCCO5)ccc32)c1-c1ccccc1 | 1 | 4
COCCN1CCN(CC(=O)Nc2cc(C)nn2-c2nc(C)cc(C)n2)CC1 | 3 | 5
COc1ncccc1CN1CCc2[nH]cnc2C1Cc1ccccc1 (stereo not drawn) | 2 | 19
COCCNC(=O)c1coc(CN(Cc2ccc3c(c2)OCO3)Cc2ccc(C)cc2C)n1 | 20 | 20
O=C(NCc1ccc2c(c1)OCO2)c1cccnc1N1CCN(C(=O)NCCc2ccccc2F)CC1 | 9 | -4
O=C(C1CC1)N1CCN(c2cc(Oc3ccc(F)c(Cl)c3)ncn2)CC1 | 10 | 9

# Looked up one by one from the entries so far, 3 records:
SMILES | NPYLR7 agonist | NPYLR7 agonist max-min
O=C1NC(C(=O)NCc2cccnc2N2CCCCCCC2)CO1 (stereo not drawn) | 0 | -1
CCCc1cnc(N2CCC(C3CCN(Cc4cccnc4)CC3)C2)nc1 (stereo not drawn) | 7 | 4
Clc1ccc2c(SCCN3CCSCC3)ccnc2c1 | -1 | 2

# Next part.
SMILES | NPYLR7 agonist | NPYLR7 agonist max-min
Cc1csc(NC(=O)CSc2nc(N)c(NC(=O)c3ccccc3)c(=O)[nH]2)n1 | -5 | -9
O=C(CN1CCC(N2CCCC2=O)CC1)N1CCOc2ccccc21 | 4 | 1
CCOC(=O)c1cc(-c2ccc(N3CCN(C(=O)c4cccnc4SC)CC3)cc2)n(-c2ccccn2)n1 | -3 | -3
CCC1c2ccsc2CCN1C(=O)Nc1ccc(OC(F)F)c2ncccc12 (stereo not drawn) | -6 | 193
COc1cc(OC)nc(C(NC(=O)C2CCN(Cc3c[nH]c4ccccc34)CC2)c2ccc(Cl)cc2)n1 (stereo not drawn) | -1 | -3
CC(C)CC(=O)N1CCC(n2c(=O)oc3ccc(C(C)(C)C)cc32)CC1 | -7 | 4
